GIRK2 activ: GIRK2 channel activation. P48051. HEK293-GIRK2 thallium flux, Thallos fluorescence. calls only for hits at 25 µM. 0.05% of 63,000 active. AID 1259325;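 active = among the strongest 0.2% of first-round signals and kept after retests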;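 note: first round at about 10 µM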
Target sequence (P48051 whole entry, looked up): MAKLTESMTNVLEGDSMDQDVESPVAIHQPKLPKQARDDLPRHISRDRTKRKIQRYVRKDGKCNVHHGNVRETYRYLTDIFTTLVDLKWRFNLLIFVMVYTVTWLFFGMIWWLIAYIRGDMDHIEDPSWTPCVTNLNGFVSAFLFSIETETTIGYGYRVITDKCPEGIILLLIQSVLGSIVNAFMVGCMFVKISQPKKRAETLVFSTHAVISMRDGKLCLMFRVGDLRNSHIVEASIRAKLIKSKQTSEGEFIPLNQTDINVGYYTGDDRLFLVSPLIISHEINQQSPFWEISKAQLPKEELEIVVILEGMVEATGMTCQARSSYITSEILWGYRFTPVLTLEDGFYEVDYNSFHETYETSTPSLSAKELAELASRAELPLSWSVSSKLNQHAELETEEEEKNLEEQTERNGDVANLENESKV
Calls only; i = inactive. This is a subset; rates above refer to the full screens.

SMILES | GIRK2 activ
Cc1ccc(Cl)cc1N1CCN(C(=O)c2cn(C)nn2)CC1 | i
COc1ccc(N(C)S(=O)(=O)c2ccsc2-c2nc(-c3ccc(OC)cc3OC)no2)cc1 | i
O=C(NC1CCN(C(=O)c2cc(-c3cccs3)[nH]n2)CC1)c1cccc(F)c1 | i
O=C(NCC1(O)CCc2ccccc2C1)c1cccc(Cl)c1 (centres undefined) | i
COc1ccc(F)cc1S(=O)(=O)NCCn1nc(-c2ccc(F)cc2)ccc1=O | i
O=C(NCCOc1ccccc1)NCC1CCN(C(=O)c2ccoc2)CC1 | i
CCc1ccc(-n2c(C)c(C)n3c4c(=O)[nH]c(=O)n(C)c4nc23)cc1 | i
COc1cccc(NC(=O)Nc2ccc3c(c2)N(C)C(=O)C(C)(C)CO3)c1OC | i
CCn1c(=O)c2c(nc3n(-c4ccc(OC)cc4OC)c(C)cn23)n(C)c1=O | i
CCOC(=O)N1CCN(C(=O)C2CCN(c3cc(Oc4ccccc4)ncn3)CC2)CC1 | i
COc1cc(-c2noc(-c3cn(-c4ccc(F)cc4)c(=O)c4ccccc34)n2)cc(OC)c1OC | i
Cc1nnc(CNC(=O)c2cnn3c2OCCC3)o1 | i
CCOc1ccc(CC(=O)NNC(=O)c2ccc(=O)n(Cc3ccc(Cl)cc3)c2)cc1 | i
Nc1c(C(=O)c2cccc(-c3ccncc3)c2)cnn1-c1ccc(F)cc1 | i
O=C(CCCSc1ccccc1)Nc1ccc([N+](=O)[O-])cc1 | i
O=C(NCc1cccs1)Nc1ccccc1NC(=O)c1ccccc1F | i
COc1ccc(C(=O)Nc2cc(Cl)ccc2C#N)nn1 | i
CCOC(=O)N1CCN(C(=O)Cn2c(-c3cccn(C)c3=O)nc3ccccc32)CC1 | i
CCCCc1ccc(-n2nnc(C(=O)Nc3ccccc3C#N)c2C)cc1 | i
COc1cccc2sc(N(C)CC(=O)Nc3ccc(S(=O)(=O)NC(C)=O)cc3)nc12 | i
COc1ccc(CCNC(=O)c2cnn3c(-c4ccc(C)c(C)c4)ccnc23)cc1OC | i
Cc1ccc(-c2csc(Cc3nc(-c4cccs4)no3)n2)c(C)c1 | i
CC(=O)N1CCc2c(sc(NC(=O)CCOc3ccccc3)c2-c2nc3ccccc3s2)C1 | i
C=CCn1c(=O)c2ccc(C(=O)NC(C)CC)cc2n2c(=O)[nH]nc12 (centres undefined) | i
Cc1cccc2c1N(Cc1ccccc1OCCC(C)C)C(=O)C2=O | i

Continued.
SMILES | GIRK2 activ
CCc1nccn1CC1CCN(S(=O)(=O)c2ccc(C)cc2)CC1 | i
COC(=O)C1c2ccsc2CCN1C(=O)C1Oc2ccccc2OC1C (centres undefined) | i
O=C1CC(NC(=O)c2ccccc2Oc2ccccc2)CN1 (centres undefined) | i
COc1cccc2cc(C(=O)N3CCc4nc(NC(=O)C5CCCO5)sc4C3)oc12 (centres undefined) | i
CCOc1ccc(OCC(=O)N2CCN(c3ncnc4c3nnn4-c3ccccc3)CC2)cc1 | i
Cc1cc(Cl)cc2sc(N(Cc3ccccn3)C(=O)CN3C(=O)CCC3=O)nc12 | i
O=c1n(Cc2ccccc2Cl)nc2c(S(=O)(=O)N3CCCCC3)cccn12 | i
CCN(CC)S(=O)(=O)c1ccc(-c2nc(C#N)c(Nc3ccc(OC)cc3)o2)cc1 | i
Cc1cc(C)n(CCc2nnco2)n1 | i
COc1ccc(OC)c(NC(=O)Cn2nc3ccc(-c4ccc(Cl)cc4)nn3c2=O)c1 | i
CCCOc1ccc(S(=O)(=O)N2CCCC2)cc1C | i
Cc1ccc(-c2noc(CN3C(=O)C(C)Oc4ccccc43)n2)cc1C (centres undefined) | i
N#CC1=CN(c2ccc(Cl)cc2)c2cc(F)ccc2S1(=O)=O | i
CCCC(=O)Nc1ccc(OCC(O)CNC(C)C)c(C(C)=O)c1 (centres undefined) | i
COc1ccccc1CCNS(=O)(=O)CCNC(=O)c1ccc2c(c1)OCO2 | i
O=C(c1ccno1)N1CC(Oc2nc3c(Cl)cccc3s2)C1 | i
CC(=O)c1ccc(OCC(=O)Nc2cc(-n3ccc4ccccc43)ncn2)cc1 | i
CCOc1ccc(C(=O)NCCOc2ccc(-c3ccc(OCC)cc3)nn2)cc1 | i
Cn1c(CN2CCN(CC(=O)NCc3ccc(F)cc3)CC2)nc2ccccc21 | i
CN(C)c1ncc(NS(=O)(=O)c2ccccc2C(F)(F)F)cn1 | i
O=C(c1ccc(OC(F)(F)F)cc1)N1CCC(CSCc2ccco2)CC1 | i
Cc1cc(C)n(-c2nc3c(c(=O)n(CC(N)=O)c(=O)n3C)n2C)n1 | i
Cc1cc(C)n(CC2CCN(S(=O)(=O)c3ccc(Cl)s3)CC2)n1 | i
Cc1noc(NS(=O)(=O)c2ccc(NC(=O)COc3ccc([N+](=O)[O-])cc3)cc2)c1C | i
CC(=O)Nc1ccc(N/C=C(/C#N)S(=O)(=O)c2ccc(Cl)cc2)cc1 | i

Random excerpt: 4 entries already listed
SMILES | GIRK2 activ
CCOc1ccc(CC(=O)NNC(=O)c2ccc(=O)n(Cc3ccc(Cl)cc3)c2)cc1 | i
Cc1ccc(-c2csc(Cc3nc(-c4cccs4)no3)n2)c(C)c1 | i
Cc1ccc(Cl)cc1N1CCN(C(=O)c2cn(C)nn2)CC1 | i
CCc1ccc(-n2c(C)c(C)n3c4c(=O)[nH]c(=O)n(C)c4nc23)cc1 | i

Laid out differently: results already given
mol: Cn1c(CN2CCN(CC(=O)NCc3ccc(F)cc3)CC2)nc2ccccc21
  GIRK2 activ: i

mol: CN(C)c1ncc(NS(=O)(=O)c2ccccc2C(F)(F)F)cn1
  GIRK2 activ: i

mol: O=C(c1ccc(OC(F)(F)F)cc1)N1CCC(CSCc2ccco2)CC1
  GIRK2 activ: i

mol: Cc1cc(C)n(-c2nc3c(c(=O)n(CC(N)=O)c(=O)n3C)n2C)n1
  GIRK2 activ: i

More structures
SMILES | GIRK2 activ
COc1ccc(/C=C2\SC(=S)N(CC(=O)Nc3cccnc3)C2=O)cc1OC | i
CN(CC(=O)N1CCc2ccccc21)C(=O)c1c[nH]c2ccccc12 | i
COc1ccc2c(c1)c(CC(=O)NCCCCNC(=O)CN1CCN(C(=O)OCc3ccccc3)CCN(Cc3ccc4cc(C)ccc4n3)CCN(C(=O)OCc3ccccc3)CC1)c(C)n2C(=O)c1ccc(Cl)cc1 | i
Cc1ccc(Cn2cc(-c3noc(C(=O)Nc4ccc(C)c(F)c4)n3)nn2)cc1 | i
COc1ccc(-c2coc3c4c(ccc3c2=O)OCN(CCN2CCOCC2)C4)cc1 | i
Cn1cccc1CN(Cc1cccs1)C(=O)CSCc1ccccc1 | i
COc1cccc(CNC(=O)COc2cc(C)nc(N3CCC(C)CC3)n2)c1OC | i
COc1ccc(CNC(=O)Cn2nc3c(c2NC(=O)c2cccc(C(F)(F)F)c2)CSC3)cc1 | i
CC(C)N(CC#CCNC(=O)CCSc1ccccc1)C(C)C | i
Cc1onc(-c2ccccc2Cl)c1C(=O)NCC1(c2ccc(F)cc2)CCOCC1 | i
COCC(C)(O)CNS(=O)(=O)c1ccc(N2CCCCS2(=O)=O)cc1 (centres undefined) | i
O=S(=O)(c1cccc2c(Cl)cccc12)N1CCCNCC1 | i
CC1CCCCN1C(=O)c1cc2c(=O)n(C)c(=O)n(C)c2n1Cc1ccccc1 (centres undefined) | i
Cc1cc(OCC(=O)Nc2cccc(Br)c2)nc(N2CCCC2)n1 | i
CCCNC(=O)/C(C#N)=C1\N=C(NC(=O)c2ccccc2Cl)c2ccccc21 | i
CCc1nc(OCC(=O)Nc2ccc(C)cc2Cl)c2ccccc2n1 | i
O=C(Nc1nnc(-c2ccc(Cl)s2)o1)Nc1ccccc1F | i
Cc1noc(C)c1CCC(=O)OC1CN(c2nc3c(F)cc(F)cc3s2)C1 | i
Cc1ccc(-c2noc(CCn3nc(-c4cccc(Cl)c4)ccc3=O)n2)cc1 | i
COc1ccc(CC(=O)Nc2ccc(Cn3cnc(C(=O)Nc4cccc(F)c4)c3)cc2)cc1OC | i
COc1ccc(F)cc1S(=O)(=O)NCC#CCOc1ccc2c(c1)OCO2 | i
O=C(CN1CCC(Cn2c(C(F)(F)F)nc3ccccc32)CC1)NCc1ccc(F)cc1 | i
CC(C)N(CC#CCNC(=O)c1ccc2ccccc2n1)C(C)C | i
CCCCCCCCCCCCCCCCOCC(COP(=O)([O-])OCC[N+](C)(C)C)OCC (centres undefined) | i
Cn1nc(-c2cccs2)cc1C(=O)N1CCN(C(c2ccccc2)c2ccccc2)CC1 | i

Following part
SMILES | GIRK2 activ
CNc1ncc2cc(Oc3ccc(F)cc3F)c(=O)n(C)c2n1 | i
O=C(c1cc2cccnc2n(Cc2ccc(Cl)cc2)c1=O)N1CCN(c2ccccc2F)CC1 | i
Cc1cc(Nc2ccc(NC(=O)c3c[nH]c4ccccc34)cc2)nc(N2CCCC2)n1 | i
Cc1cc2oc3c(c(=O)c2cc1Cl)C(c1cccc(Cl)c1)N(C)C3=O (centres undefined) | i
COc1nn(C)cc1C(=O)Nc1ccc(C(=O)NCCn2nc(-c3ccco3)ccc2=O)cc1 | i
CCOc1ccccc1NC(=O)Nc1ccc(CN2CCN(c3ccccn3)CC2)cc1 | i
COCCCNC(=O)c1cn(C)nc1S(=O)(=O)N1CCN(c2cc(Cl)ccc2C)CC1 | i
O=C(/C=C/c1ccc(F)cc1)N1CCN(c2ccc(-c3ccco3)nn2)CC1 | i
Cc1ccc(-c2csc3c(=O)[nH]c(N4CCCC(C(=O)NCc5cc(F)cc(F)c5)C4)nc23)cc1 (centres undefined) | i
CC(=O)Nc1ccc(N2C(=O)/C(=C/c3cccc(O)c3)SC2=S)cc1 | i
Cc1ccc(C(O)CNC(=O)C2(c3cccs3)CCCC2)o1 (centres undefined) | i
O=C(Nc1ccccc1O)c1coc(NC(=O)C2CCC2)n1 | i
CCOc1ccc(C(O)=C2C(=O)C(=O)N(Cc3cccnc3)C2c2ccccn2)cc1 (centres undefined) | i
CCOc1ccc(CC(=O)Nc2ccc3c(c2)CCCN3S(=O)(=O)c2ccc(OC)cc2)cc1 | i
CCCn1c(C(=O)NCc2ccco2)cc2c(=O)n(C)c(=O)n(C)c21 | i
CCOc1ccc(N(C)S(=O)(=O)c2ccsc2C(=O)NC)cc1 | i
Cc1cc(C(=O)N2CCC(c3cccs3)CC2)no1 | i
O=S(=O)(Nc1cnc(Oc2ccccc2)nc1)c1ccccc1F | i
O=C(CNC(=O)c1c[nH]c2ccccc12)NCc1ccc(OC(F)(F)F)cc1 | i
COc1ccc(Cl)cc1NC(=O)CSc1nc2sc(C)cc2c(=O)n1C | i
CC(C)CCNC(=O)Cn1c(=O)n(CC2CCC(C(=O)NC(C)C)CC2)c(=O)c2sccc21 (centres undefined) | i
O=C(Nc1ccc(F)cc1F)c1cc2ccccc2o/c1=N\NS(=O)(=O)c1ccccc1 | i
Cc1cc(C(F)(F)F)nc(CCNC(=O)c2snnc2C)n1 | i
Cc1cc(NC(=O)c2c(F)cccc2F)n(-c2nc3ccccc3s2)n1 | i
COc1ccc(-c2c(C(F)(F)F)oc3cc(OCC(=O)OC(C)(C)C)ccc3c2=O)cc1 | i

An excerpt of these results, with each value named.
COc1ccc(Cl)cc1NC(=O)CSc1nc2sc(C)cc2c(=O)n1C
  GIRK2 activ: i

CC(C)CCNC(=O)Cn1c(=O)n(CC2CCC(C(=O)NC(C)C)CC2)c(=O)c2sccc21 (centres undefined)
  GIRK2 activ: i

Next section
SMILES | GIRK2 activ
CC(C)CC(c1c(O)c(C=O)c(O)c(C=O)c1O)C1(C)CCC2C1C1C(CCC2(C)O)C1(C)C (centres undefined) | i
Cc1ccc(-n2c(C)c(C)n3c4c(=O)n(CCN5CCOCC5)c(=O)n(C)c4nc23)cc1C | i
Cc1ccc(C)c(N2CCN(C(=O)c3ccc4c(=O)nc5c(-c6ccccc6F)n[nH]n5c4c3)CC2)c1 | i
CCOC(=O)NCCc1nc(C)cc(C(F)(F)F)n1 | i
O=S(=O)(CCc1ccccc1)NCCc1ccoc1 | i
CCOc1cccc(CNC(=O)c2sccc2N(C)S(=O)(=O)c2ccc(C)cc2)c1 | i
COc1ccc(-c2c(NC(=O)c3ccco3)n(C)c3ccccc3c2=O)cc1OC | i
Cc1ccc(-n2nnc(C(=O)N3CCN(c4cc(C)ccc4C)CC3)n2)cc1 | i
O=C(NCC1(c2cccs2)CC1)c1cc(-c2ccco2)on1 | i
CC(C)(C)c1ccc(OCC(O)C[N+]2(C)CCOCC2)cc1 (centres undefined) | i
COc1ccc(N2CCn3c2nc2c3c(=O)n(Cc3ccccc3C)c(=O)n2C)cc1 | i
CC(C(=O)NCCc1ccc(S(N)(=O)=O)cc1)n1nc(-c2ccc(F)cc2)ccc1=O (centres undefined) | i
Cc1csc(NC(=O)CN2CCN(Cc3nc4ccccc4n3C)CC2)n1 | i
CC1=CCC2C(C)(C)CCCC2(C)C1CC12OC1C(O)C(CO)=CC2O (centres undefined) | i
O=C(c1cccc(Br)c1)N1CCN(c2ncnc3c2nnn3-c2cccc(F)c2)CC1 | i
CC(C)=CCC/C(C)=C/CC/C(C)=C/CC12OC1C(O)C(C)=CC2=O (centres undefined) | i
CCc1ccccc1NC(=O)Cc1cc(=O)[nH]c(SCc2ccccc2)n1 | i
Cc1nc(C)c(C(=O)C2=C(O)C(=O)N(CCN(C)C)C2c2ccc([N+](=O)[O-])cc2)s1 (centres undefined) | i
Cc1ccc(N2CC(c3nc(-c4ccc(C(F)(F)F)cc4)no3)CC2=O)cc1C (centres undefined) | i
O=c1c2cn[nH]c2nc(SCc2nc(-c3cccc(C(F)(F)F)c3)no2)n1-c1ccccc1 | i
COC(=O)C(C)(C)NC(=O)Nc1ccc(Cl)cc1Cl | i
O=C(CSCc1ccccc1)NCC1(c2ccc(F)cc2)CC1 | i
NC(=O)c1ccccc1OCC#CCNC(=O)CCn1cnc2ccccc2c1=O | i
COc1ccc(C(=O)Nc2ccc3c(c2)CCCN3C(=O)C(C)C)cc1OC | i

By substructure, the entries above with a tert-butyl group
SMILES | GIRK2 activ
COc1ccc(-c2c(C(F)(F)F)oc3cc(OCC(=O)OC(C)(C)C)ccc3c2=O)cc1 | i
CC(C)(C)c1ccc(OCC(O)C[N+]2(C)CCOCC2)cc1 (centres undefined) | i
